# From PubChem BioAssay
# Anaer choline gr: inhibitors of anaerobic choline-dependent gram-negative bacterial growth; Gram-negative bacterium anaerobic choline minimal medium, absorbance growth; active compounds read low; many inactives read as strong as hits in the columns shown; calls only; 55,000 tested, 0.2% active; AID 1963822;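 active = growth z-score on choline under -2 at 7 or 20 h with little or no fall on glycerol, limits in tiers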;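 note: stock transfer was 300 nL into about 50 µL; the organism is E. coli; final concentration not given here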
# Anaer choline gr early: recorded beside Anaer choline gr, whose call it bears; z-score; measured here: choline growth z-score, timepoint 1;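 score of optical density at 7 h as mean of two plates; lower means less growth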
# The depositor's hits bear a star; i = inactive; & = joins results of further samples. Not all compounds are listed, so the mix of outcomes need not match the whole.
# The line under a structure holds: Anaer choline gr	Anaer choline gr early
O=C1C2C=CC=CC2=NC(=S)N1CCN1CCC(=C(c2ccc(F)cc2)c2ccc(F)cc2)CC1 (stereo not given)
→ i	0.86
Cc1nc(-c2ccc(C(C)C)c(S(=O)(=O)N3CCC(C)CC3)c2)cs1
→ i	2.8
CC(C)c1ccc(-c2nn3c(=O)c(NC(=O)c4ccc(F)cc4)cnc3o2)cc1
→ i	0.6
Cc1cc2c(cc1S(=O)(=O)N1CCOCC1)OCC(=O)N2Cc1noc(C2CC2)n1
→ i	-0.35
Cc1cccc(NC(=O)NCc2nc(-c3ccccc3C)oc2C)c1
→ i	0.04
COC(=O)c1c(-c2ccc(Cl)cc2)noc1N1CCN(C2CCCCC2)CC1
→ i	-0.9
CCCN(CCC)C(=O)CSc1nc2sc3c(c2c(=O)n1-c1ccccc1)CCN(C(C)=O)C3
→ i	-0.08
Cc1cc(NCc2ccccc2)n2ncc(-c3ccc(F)cc3)c2n1
→ i	0.43
CCOc1ccc(N2C(=O)c3cccnc3C2=O)cc1
→ i	0.91
COc1ccc(OC)c(NC(=O)C(C)Oc2cc(C(F)(F)F)c3c(C)nn(C)c3n2)c1 (stereo not given)
→ i	-0.54
COc1ccc(Cl)cc1NC(=O)c1cc2c([nH]c1=O)CC(C)(C)CC2=O
→ i	0.94
Cc1csc(-c2cc(S(=O)(=O)NC3CCCCC3)cn2CC(=O)N2CCCC2)n1
→ i	0.17
CC(=O)CC(c1ccc([N+](=O)[O-])cc1)c1c(O)c2ccccc2oc1=O (stereo not given)
→ i	0.3
O=c1[nH]cccc1-c1nc(-c2cccc(Br)c2)no1
→ i	-0.04
COC(=O)CSc1nnc2n1CCN2c1ccccc1
→ i	-0.98
Cc1ccccc1C(=O)Nc1cc2c(cc1S(=O)(=O)C1CCCCC1)n(C)c(=O)c(=O)n2C
→ i	0.54
CC(C)(C)c1csc(-c2csc(S(=O)(=O)NCc3ccc(F)cc3F)c2)n1
→ i	-0.19
Nc1ncn([C@H]2C[C@H](O)[C@@H](CO)O2)c(=O)n1
→ i	-3.7
COc1cccc(-c2noc(-c3nn(-c4cccc(F)c4)ccc3=O)n2)c1OC
→ i	0.26
O=C(c1ccc(N2CCc3ccccc32)nn1)N1CCc2ccccc21
→ i	0.41
O=C(NC1CCCC1)N1CCC(N2CCN(Cc3ccc(F)cc3)C(=O)C2=O)CC1
→ i	-0.33
Cn1c(=O)n(C)c2cc(Sc3ccc(F)cc3)c(NS(=O)(=O)c3ccc4c(c3)CCC4)cc21
→ i	0.02
CCn1nnc2cc(-c3noc(-c4sc(C)nc4C)n3)ccc21
→ i	0.44
CCCNS(=O)(=O)c1c[nH]c(-c2nnc(CC)o2)c1
→ i	-0.18
C#CCOc1cc(C2CC(=O)Nc3c2c(C)nn3-c2nncc(-c3ccc(C)cc3)n2)ccc1OC (stereo not given)
→ i	0.79
Cc1ccc(-c2nc(CN3CCN(C(=O)Nc4cc(C)ccc4C)CC3)c(C)o2)cc1
→ i	-0.13
CO/N=C(\C(=O)N[C@@H]1C(=O)N2C(C(=O)O)=C(C[N+]3(C)CCCC3)CS[C@H]12)c1csc(N)n1
→ i	-2.8
CCc1cc(C2CCCN2C(=O)NC(C)CC)on1 (stereo not given)
→ i	0.39
Cc1cccc(-c2cc(N3CCN(C(=O)c4ccccc4Br)CC3)ncn2)c1
→ i	0.08
CC(NC(=O)c1ccc(CN2C(=O)CSc3ncccc32)cc1)c1ccc2c(c1)OCCO2 (stereo not given)
→ i	0.02
COc1ccc(Nc2nc(C)c(NC(=O)C3CC3)c(Nc3ccc(OC)cc3)n2)cc1
→ i	0.49
Cc1ccc(NC(=O)Nc2ccccc2OCc2cc(=O)n3c(ncn3C(C)C)n2)cc1Cl
→ i	-0.18
CC(=O)N1CCc2cc(N3CC(C(=O)NCC4CCCO4)CC3=O)ccc21 (stereo not given)
→ i	-0.11
CC(C)(C)c1csc(-c2csc(S(=O)(=O)Nc3ccc(F)c(Cl)c3)c2)n1
→ i	0.22
CC(C)Cc1cc(-c2nnc3sc(-c4cccc(F)c4)nn23)n[nH]1
→ i	-0.51
CC(C)(C)C1CCc2c(sc3nc(CCC(=O)N4CCC(C(N)=O)CC4)[nH]c(=O)c23)C1 (stereo not given)
→ i	-0.25
CNc1nc(C(N)=O)c(NC(=O)CN2C(=O)C(C)Oc3ccccc32)s1 (stereo not given)
→ i	0.19
CCOc1ccccc1C1C2=C(CC(c3ccc(O)c(OC)c3)CC2=O)Nc2onc(C)c21 (stereo not given)
→ i	0.48
Cc1cc(C)cc(NC(=O)N2CCC(CN3CCCCC3)CC2)c1
→ i	-1.4
Cc1noc(C)c1C1CCCN1C(=O)Nc1ccc2c(c1)OCCO2 (stereo not given)
→ i	-1
CNC(=O)c1c(NC(=O)CCSc2ccccc2)sc2c1CCC2
→ i	0.75
O=C1CN(Cc2ccccc2Cl)S(=O)(=O)c2ccccc2N1Cc1ccccc1
→ i	-0.21
Cc1cccc(-c2nn3c(=O)cc(N4CCN(S(=O)(=O)c5ccccc5C)CC4)nc3s2)c1
→ i	0.85
O=C(CSc1nnc2sc3ccccc3n12)N1CCN(c2ccccc2)CC1
→ i	-1.9
Cc1ccc2c(=O)c(-c3nc(-c4ccc(Cl)cc4)no3)cn(CC(=O)Nc3ccc(C(C)C)cc3)c2n1
→ i	-0.38
O=C(Nc1ccc(F)cc1)C1CCN(Cc2cc3ccccc3n2Cc2cccc(F)c2)CC1
→ i	0.63
O=C(Cc1c(C(=O)O)[nH]c2ccccc12)NCCN1CCN(c2ccccc2F)CC1
→ i	0.3
Cc1ccc(-n2nc(C(=O)N3CCN(c4ccc(Cl)cc4)CC3)cc2-c2cccnc2)cc1
→ i	0.62
Cc1ccc(-n2nc(N3CCN(C(=O)c4cccnc4)CC3)ccc2=O)cc1
→ i	0.34
CCOc1ccc(NC(=O)c2ccc(-c3noc(C4CCCN(C(=O)c5ccccc5)C4)n3)cc2)cc1 (stereo not given)
→ i	1.2

# (continued)
# The line under a structure holds: Anaer choline gr	Anaer choline gr early
O=C(NCCC1=CCCCC1)C1CCN(S(=O)(=O)c2ccc(-c3noc(C4CC4)n3)cc2)CC1
→ i	1.4
c1ccc(-c2nnc3sc(-c4cc5ccccc5o4)nn23)nc1
→ i	-0.6
CCc1ccc(S(=O)(=O)N2CCC3(CC2)NCCN=C3NCc2ccccc2C)cc1
→ i	-0.09
CC(=O)Nc1cc(-c2nc(-c3ccc(-c4csc(C)n4)cc3)no2)ccc1C
→ i	-0.39
CCN(CC)CCNc1ccc2nnc(CCNC(=O)c3ccc(C)cc3)n2n1
→ i	-1.1
COc1ccc(CCNC(=O)Cc2csc(NC(=O)c3cc(OC)cc(OC)c3)n2)cc1
→ i	-0.63
O=C(O)CN(CCN(CC(=O)O)CC(=O)O)CCN(CC(=O)O)CC(=O)O
→ i	-1&0.3
COc1ccc(-c2noc(-c3ccccc3OCC(=O)Nc3nccs3)n2)cc1
→ i	1.6
O=C(COc1ccc(-c2nc(-c3ccccc3)no2)cc1)Nc1nccs1
→ i	0.88
Cn1c(SCc2c(F)cccc2Cl)nnc1-c1ccc2c(c1)OCCCO2
→ i	-0.73

# Single entries from the list.
# CCN(CC)CCNc1ccc2nnc(CCNC(=O)c3ccc(C)cc3)n2n1 @ Anaer choline gr early = -1.1
# CC(=O)Nc1cc(-c2nc(-c3ccc(-c4csc(C)n4)cc3)no2)ccc1C @ Anaer choline gr early = -0.39

# Next part.
# The line under a structure holds: Anaer choline gr	Anaer choline gr early
Cn1ccc2cc(S(=O)(=O)N3CCN(C(=O)Nc4cccc(Br)c4)CC3)ccc21
→ i	0.07
Cc1ccc(Cn2ccc(NC(=O)C3=CC(c4ccc(C)cc4)=NS(=O)(=O)N3C)n2)cc1
→ i	1.8
CN(C)S(=O)(=O)c1ccc2c(c1)nnn2CCNC(=O)NC1CCCC1
→ i	-0.81
Cc1csc(-c2cc(S(=O)(=O)N3CCN(C4CCCCC4)CC3)c(C)s2)n1
→ i	-0.2
Cc1ccc2c(c1)NC(=O)C(C(=O)Nc1ccccc1F)O2 (stereo not given)
→ i	0.38
O=c1nc(SCc2ccc(Cl)cc2)c2c(n1C1CCCC1)CCC2
→ i	0.08
O=C(O)c1cnc(N2CCC(N3CCCCC3)CC2)c(NS(=O)(=O)c2ccc(F)cc2)c1
→ i	0.46
Cc1nnc(-c2c(S(=O)(=O)NCc3ccco3)c(C)n(C)c2C)o1
→ i	1.8
COc1ccc(NC(=O)c2cccc(Nc3ccc(-c4cccc(C)c4)nn3)c2)cc1OC
→ i	0.68
O=C(NC1CC1)C1CCN(c2ccc3cc(S(=O)(=O)N4CCCCC4)ccc3n2)CC1
→ i	-0.33
COc1ccc(CC(=O)NCC(c2ccc(N(C)C)cc2)N(C)C)cc1OC (stereo not given)
→ i	0.53
Cc1ccc(-c2nc(CN3CCN(C(=O)c4ccc(Br)cc4)CC3)c(C)o2)cc1
→ i	-0.1
O=c1c(NC2CC2)csc2ccccc12
→ i	-2.7
CC(c1ccccc1)n1cnc2c3cc(F)ccc3n(Cc3ccccc3Cl)c2c1=O (stereo not given)
→ i	1.1
Cc1cc(C2CCCN2C(=O)c2cc(C3CC3)on2)no1 (stereo not given)
→ i	-0.32
Cc1nc(Nc2ccc(F)cc2)c2c(C)c(C)n(-c3ccc(F)cc3)c2n1
→ i	0.89
Cc1ccccc1Cn1c(C)c(C2CCN(S(=O)(=O)c3cnn(C(F)F)c3C)CC2)c2ccccc21
→ i	-0.09
CCc1ccccc1NS(=O)(=O)c1cc(-c2cc(C(F)(F)F)on2)sc1C
→ i	0.58
CCOC(=O)c1sc(NC(=O)c2snnc2C)c(C(=O)OCC)c1C
→ i	0.69
CN1CCc2nc(NC(=O)c3cccc(Cl)c3)sc2C1
→ i	-1.7
O=C(NCc1cccnc1)C1CCN(Cc2cc3ccccc3n2Cc2ccccc2)CC1
→ i	-0.26
Cn1c(SCC(=O)NCC2CCCO2)nnc1-c1cc2ccccc2o1 (stereo not given)
→ i	-0.79
CC(C)S(=O)(=O)c1ccc(N2CCN(c3ncccn3)CC2)nn1
→ i	0.54
O=C(Nc1ncn[nH]1)C1CCC1
→ i	0.42
CCCCSC1=Nc2ccccc2NC(CC(=O)OC)=C1
→ i	2
CCOC(=O)COc1ccc(C)cc1C(=O)c1ccn2nc(-c3ccccc3)cc2n1
→ i	0.4
COc1ccccc1N1CCN(c2ccc(=O)n(CC(=O)Nc3ccc4c(c3)OCO4)n2)CC1
→ i	-0.06
C[N+]1(C)CCC(OC(=O)C(O)(c2ccccc2)C2CCCC2)C1 (stereo not given)
→ i	0.5&-0.31
O=C(NCC(c1cccnc1)N1CCN(c2ccccc2)CC1)C1CC1 (stereo not given)
→ i	0.3
COC(=O)c1c(-c2cccc(Cl)c2)noc1Nc1cc(Cl)c(OC)cc1OC
→ i	1.1

# Among those listed so far, two have a CF3 group.
# The line under a structure holds: Anaer choline gr	Anaer choline gr early
COc1ccc(OC)c(NC(=O)C(C)Oc2cc(C(F)(F)F)c3c(C)nn(C)c3n2)c1 (stereo not given)
→ i	-0.54
CCc1ccccc1NS(=O)(=O)c1cc(-c2cc(C(F)(F)F)on2)sc1C
→ i	0.58

# (continued)
# The line under a structure holds: Anaer choline gr	Anaer choline gr early
COC(=O)c1noc2ncnc(Nc3ccc(Br)cc3F)c12
→ i	-0.24
CC1CCN(c2ncnc3c2cnn3C)CC1
→ i	0.01
Cc1cccc(C2=Nc3ccccc3N=C(c3ccccc3O)C2)c1
→ i	0.73
COc1ccc(OCC(=O)Nc2nnc(SCc3cc(=O)n4oc(C)cc4n3)s2)cc1
→ i	-0.32
CCOC(=O)c1ccccc1NC(=O)c1c(-c2ccccc2)oc2ccc(OCC)cc12
→ i	0.61
Cc1nc2sc3ccccc3n2c(=O)c1S(=O)(=O)Nc1ccc(Br)cc1
→ i	2.3
O=C(NCc1ccc(Cl)cc1)c1ccc(-n2nc(N3CCCC3)ccc2=O)cc1
→ i	-0.77
CCOc1ccc(S(N)(=O)=O)cc1-c1nc(C(C)C)no1
→ i	-0.39
COc1ccccc1N1CCN(c2nc3ccccc3cc2-c2noc(C)n2)CC1
→ i	-0.85
O=C(CN1C(=O)C2CCCCN2c2ccc(C(=O)N3CCCC3)cc21)NCC1COCCO1 (stereo not given)
→ i	1.8

# Structural class, the entries above with a COOH group (4)
# The line under a structure holds: Anaer choline gr	Anaer choline gr early
CO/N=C(\C(=O)N[C@@H]1C(=O)N2C(C(=O)O)=C(C[N+]3(C)CCCC3)CS[C@H]12)c1csc(N)n1
→ i	-2.8
O=C(Cc1c(C(=O)O)[nH]c2ccccc12)NCCN1CCN(c2ccccc2F)CC1
→ i	0.3
O=C(O)CN(CCN(CC(=O)O)CC(=O)O)CCN(CC(=O)O)CC(=O)O
→ i	-1&0.3
O=C(O)c1cnc(N2CCC(N3CCCCC3)CC2)c(NS(=O)(=O)c2ccc(F)cc2)c1
→ i	0.46

# Next part:
# The line under a structure holds: Anaer choline gr	Anaer choline gr early
CC1CCN(C(=O)Cn2cc(SCC(=O)N3CCCC3)c3ccccc32)CC1
→ i	-1
CCCCCCC(=O)Nc1ccc2nc3c(=O)n(C)c(=O)n(C)c3nc2c1C
→ i	-0.71
CCCCNC(=O)c1cc(=O)n(CCC)c2c1c(=O)n(CCC)c(=O)n2C
→ i	0.5
CC1CN(c2ccc(Cl)cc2)c2nc3c(c(=O)[nH]c(=O)n3C)n2C1 (stereo not given)
→ i	-0.51
Clc1ccc(-c2noc(-c3ccc(CN4CCCCC4)cc3)n2)cc1
→ i	-2.1
CN1CCc2c(sc3c2CN(C(=O)Nc2ccc(F)cc2)C(c2ccc(Cl)cc2)c2cccn2-3)C1 (stereo not given)
→ i	0.04
COc1cc(OC)c(NC(=O)N2CCC(C)(C(=O)NCc3ccc4c(c3)OCO4)CC2)cc1Cl
→ i	-1.6
COc1ccc(/C=C/c2onc(C)c2NC(C)=O)cc1S(=O)(=O)N1CCOCC1
→ i	-0.06
CC1CCN(C(=O)c2cc(S(=O)(=O)N(C)CC(=O)N3CCN(c4ccccc4)CC3)c[nH]2)CC1
→ i	0.36
O=C(Cn1ncn2nc3c(c2c1=O)CCCC3)Nc1ccc2c(c1)OCCO2
→ i	0.4
O=C(NCCn1c(C(F)(F)F)nc2cccnc21)Nc1ccc(Cl)cc1
→ i	-1.5
